Screening data: PubChem, National Center for Advancing Translational Sciences (NCATS)
D2 PAM – Beta-Arrestin HTS for Positive Allosteric Modulators of the Human D2 Dopamine Receptor: Potentiators | D(2) dopamine receptor (Homo sapiens), P14416 | DiscoveRx D2 beta-arrestin cells, luminescence, 90 min; 100% = 57 uM dopamine signal | potentiation, % (test concentration not listed) | hit rate 0.23% among 360,000; active = potentiation of 50% or more; inconclusive = 30% to 50%; inactive = 30% or less;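 note: compound concentration not given in the record; tested on top of an EC20 dose of dopamine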
Target sequence (P14416 whole entry, looked up): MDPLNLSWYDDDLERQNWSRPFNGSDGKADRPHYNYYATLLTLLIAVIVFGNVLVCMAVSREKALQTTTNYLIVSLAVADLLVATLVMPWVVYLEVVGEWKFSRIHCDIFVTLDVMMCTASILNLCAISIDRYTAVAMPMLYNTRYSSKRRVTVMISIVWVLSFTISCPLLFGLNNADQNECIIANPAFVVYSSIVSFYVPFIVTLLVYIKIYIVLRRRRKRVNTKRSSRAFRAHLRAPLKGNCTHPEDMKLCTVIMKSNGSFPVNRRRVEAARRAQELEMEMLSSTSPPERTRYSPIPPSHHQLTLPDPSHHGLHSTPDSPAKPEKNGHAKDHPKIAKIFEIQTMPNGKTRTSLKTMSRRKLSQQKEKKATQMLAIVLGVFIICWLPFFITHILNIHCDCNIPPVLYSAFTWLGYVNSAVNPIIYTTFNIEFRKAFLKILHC
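PathHunter D2 cells, attached overnight at 37 deg C, received compound in DMSO plus dopamine at EC20 (50 nM final) for 90 min at 37 deg C. Beta-arrestin recruitment was read as luminescence after 1 h with detection reagent at ambient temperature.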
D2 agonist – Beta-Arrestin HTS for Positive Allosteric Modulators of the Human D2 Dopamine Receptor: Agonists. D(2) dopamine receptor (Homo sapiens), P14416. DiscoveRx PathHunter D2 beta-arrestin, luminescence, 90 min; 100% = 57 uM dopamine signal. activation, % (concentration not given with the values). hit rate 0.084% among 360,000. AID 624465, 2012; in the data active = activation above about 40%; inconclusive = about 15% to 40%; inactive = below about 15%; note: compound concentration not given in the record; the text of the record calls up to 30% inactive
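DiscoveRx PathHunter D2 beta-arrestin cells (2,100/well) attached overnight, then compound-stimulated 90 min at 37 C in HBSS/10 mM HEPES/0.1% Tween-20 buffer; beta-galactosidase complementation read by luminescence after 1 h at ambient temperature. Dopamine 57 uM final (EC100) as control.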
PINK1 expr mod – A Quantitative High throughput Screen to Identify Chemical Modulators of PINK1 Expression | PINK1 immunofluorescence, high-content cytometry, 24 h | Potency, µM (highest dose often 76.6 µM), for inactives: at the top dose activation (PINK1 increase), usual class: activators | hit rate 0.2% among 410,000 | AID 624263, 2012; active = well fitted activation curve with a large enough effect; inconclusive = small, poorly fitted or top-dose-only effect; inactive = flat fitted curve, though single readings scatter; cell line not stated here;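 note: potency is the fitted concentration of half-maximal effect; % of control where 0% means no effect; nearly all actives have a fitted effect of over 65% in size; a mitochondrial uncoupler was the plate control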
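A stable cell line was treated with compounds at 5 concentrations for 24 hours, with CCCP as control. PINK1 levels and mitochondrial localization were measured by immunofluorescence with mitochondrial, cell and nuclear markers after fixation, read by laser-scanning cytometry.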
Six1-Eya2 inh – qHTS Assay for Inhibitors of the Six1/Eya2 Interaction; Homeobox protein SIX1 (Homo sapiens) + Protein phosphatase EYA2 (Homo sapiens), …; AlphaScreen GST-Six1/His-Eya2 binding, biochemical; active compounds read low; control for the full effect not named in the record; activity change, % (test concentration not listed); hit rate 0.56% among 360,000; AID 651725, 2012; in the data active = activity change below about -65%; inconclusive = about -30% to -65%; inactive = above about -30%; note: % is set by controls: 0 for no effect and ±100 for the full control effect
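AlphaScreen luminescence read after one hour at 37 °C in darkness. Pin-transferred compounds met GST-Six1 and His-Eya2 protein (5X stock 250 nM/500 nM) plus glutathione donor and Ni-chelate acceptor beads (5X, 50 ug/mL).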
TRPML1 blocker – qHTS for Inhibitors of the Human Mucolipin Transient Receptor Potential 1 (TRPML1); Mucolipin-1 (Homo sapiens), Q9GZU1; TRPML1-inducible cells, Ca2+ dye fluorescence, FDSS; active compounds read low; inhibition of EC80 agonist-evoked calcium signal; activity change, negative = inhibition, % (no concentration beside the values); hit rate 0.02% among 390,000; in the data active means activity change below about -50%; inconclusive means about -30% to -50%; inactive means above about -30%;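 note: stimulus is agonist 54-4 at its EC80 concentration; % is set by controls: 0 for no effect and ±100 for the full control effect; compound concentration not given in the record; the text of the record puts the active cut at -80%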
Target sequence (Q9GZU1 whole entry, looked up): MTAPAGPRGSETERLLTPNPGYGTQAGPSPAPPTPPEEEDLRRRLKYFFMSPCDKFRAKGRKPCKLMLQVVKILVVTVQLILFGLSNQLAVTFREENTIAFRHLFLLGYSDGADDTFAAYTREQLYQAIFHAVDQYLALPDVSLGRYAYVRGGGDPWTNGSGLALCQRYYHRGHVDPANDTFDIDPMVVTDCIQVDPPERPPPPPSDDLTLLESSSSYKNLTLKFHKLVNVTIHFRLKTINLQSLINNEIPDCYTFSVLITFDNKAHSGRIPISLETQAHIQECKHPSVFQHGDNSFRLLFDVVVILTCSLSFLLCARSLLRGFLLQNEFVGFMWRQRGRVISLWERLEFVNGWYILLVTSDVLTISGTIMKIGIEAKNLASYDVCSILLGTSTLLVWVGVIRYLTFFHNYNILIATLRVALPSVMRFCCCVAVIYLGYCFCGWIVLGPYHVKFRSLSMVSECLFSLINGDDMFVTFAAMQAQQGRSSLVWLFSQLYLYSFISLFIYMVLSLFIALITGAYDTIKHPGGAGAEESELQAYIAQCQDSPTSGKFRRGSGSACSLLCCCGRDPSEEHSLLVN
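TRPML1-DL cells, Tet-induced overnight (~16 h, 37 °C) at 1,500 cells/well, were loaded with Ca8 no-wash dye plus quencher for 45-90 min at room temperature. Compounds were pinned during FDSS kinetic reading; agonist 54-4 at EC80 (4 uM final) then added.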
TRPML1 agonist – qHTS for Agonists of the Human Mucolipin Transient Receptor Potential 1 (TRPML1). Mucolipin-1 (Homo sapiens), Q9GZU1. TRPML1-expressing cells, Ca2+ dye fluorescence, FDSS; host cell line not named in the record; reference of the full effect not given here. activation, % (concentration not given with the values). hit rate 0.12% among 410,000; in the data active = activation above about 50%; inconclusive = about 30% to 50%; inactive = below about 30%; note: 0% is about no effect; the text of the record puts the active cut at 80%
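Calcium fluorescence on an FDSS kinetic reader gave the read-out. Tet-induced TRPML1-DL cells were plated overnight, dye-loaded (Ca8 with quencher, 45-90 min, room temperature, dark), then read 110 s after compound addition, and again 110 s after 4uM final 54-4 (EC80).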
* marks the source's active call; other numbers are inactive results; u = inconclusive; x = no result given; [ ] = another dose, or the depositor's remark.

SMILES	D2 PAM	D2 agonist	PINK1 expr mod	Six1-Eya2 inh	TRPML1 blocker	TRPML1 agonist
CC(C)OCP(=O)(c1ccccc1)c1ccccc1	1	-1.1	1.8%	-3	-16	-0.8
COc1ccc(/C=C/C(=O)c2ccc3c(c2)OCCO3)cc1[N+](=O)[O-]	-24	-2.1	-0.8%	-1	-11	0.6
COC(=O)c1cc(NC2c3ccccc3C(=O)N2Cc2ccco2)cc(C(=O)OC)c1 (stereo unspecified)	-1	-2.5	2.4%	6	22	0.0
O=C1c2ccccc2-c2cccnc21	-5	-7.6	0.3%	-20	8	0.3
COc1ccccc1N(CC(=O)Nc1ccccc1C)S(C)(=O)=O	11	0.1	x	-8	17	0.1
CCSc1n[nH]c2nc3c(c(=O)n12)C1(CCCC1)Cc1ccccc1-3	1	-2.0	9.3%	9	-15	-0.8
COc1ccc(C)cc1NC(=O)NC1CCN(Cc2ccccc2)CC1	-20	-0.2	3.3%[38.3 µM]	2	4	2.0
Cc1cc2ccccc2n1-c1ccc(C(=O)N2CCC(C(=O)NCc3ccc(F)cc3)CC2)s1	x	x	-1.1%	x	19	2.2
Cc1coc2cc3oc(=O)c(CCC(=O)NC4CC4)c(C)c3cc12	-34	3.4	0.1%	-14	x	x
COc1ccc(-n2c(NC(=O)c3ccco3)c(C#N)c3nc4ccccc4nc32)cc1	3	5.3	-0.6%	0	-11	1.7
N#Cc1c(Cl)nc2c(c1C#N)CCCC2	-6	-1.0	-0.7%	-16	10	-0.2
O=C(Nc1ccc(Br)cc1)N1CCCCCC1	-14	-2.7	2.1%	10	-4	-0.4
COc1ccccc1CCNC(=O)C1CCN(c2nnc(-n3cccc3CNc3ccc(C)cc3)s2)CC1	x	x	2.4%	x	12	1.9
COc1ccc(C(=O)c2coc3ccc(O)c(CN(C)C)c23)cc1	-3	-0.7	2.2%	-4	-2	0.5
Cc1ccc(CNC(=O)C(=O)NCC2CCCO2)cc1 (stereo unspecified)	-7	-2.0	-0.9%	0	-6	0.0
CSc1ccc(Cl)c(C(=O)NCc2ccco2)c1	-5	-2.8	0.6%	-7	-15	-0.1
O=C(COC(=O)/C=C/c1cccc(Cl)c1)NC1CC1	-8	-1.4	0.0%	-1	-5	-0.2
CC(C)CN1C(=S)SC(C)(C)C1n1oc(=O)n(-c2ccccc2)c1=O (stereo unspecified)	2	1.0	14%	-2	9	1.7
O=C(Nc1c(Cl)cccc1Cl)c1cc(-c2cccc(O)c2)on1	x	x	1.1%	x	-2	-0.3
COc1cc(Cl)cc(NC(=O)CCN2CCN(C)CC2)c1	-1	0.4	3.6%[38.3 µM]	7	-8	-0.3
Cc1cc(=O)oc2cc(OCC(=O)c3ccc4c(c3)NC(=O)CO4)ccc12	-6	-0.7	8.8%	-1	-5	0.0
COc1ccc(NC(=O)c2cn(CCC#N)nc2-c2cc3ccccc3o2)cc1	-10	-0.4	3.4%	5	-7	-0.1
COc1ccc(OCc2cc(C(=O)N3C[C@H]4CC[C@H]3C4)no2)c(Cl)c1	-1	-0.6	1.3%	-7	9	2.1
COc1ccccc1CN1CC(C(=O)N(C)CCCn2nc(C)cc2C)CCC1=O (stereo unspecified)	-9	-1.7	-1.0%	-12	-23	-0.1

Part of the list above in order of SMILES length, descending:
SMILES	D2 PAM	D2 agonist	PINK1 expr mod	Six1-Eya2 inh	TRPML1 blocker	TRPML1 agonist
Cc1cc(=O)oc2cc(OCC(=O)c3ccc4c(c3)NC(=O)CO4)ccc12	-6	-0.7	8.8%	-1	-5	0.0
CC(C)CN1C(=S)SC(C)(C)C1n1oc(=O)n(-c2ccccc2)c1=O (stereo unspecified)	2	1.0	14%	-2	9	1.7
COc1cc(Cl)cc(NC(=O)CCN2CCN(C)CC2)c1	-1	0.4	3.6%[38.3 µM]	7	-8	-0.3
Cc1ccc(CNC(=O)C(=O)NCC2CCCO2)cc1 (stereo unspecified)	-7	-2.0	-0.9%	0	-6	0.0

The list continues:
SMILES	D2 PAM	D2 agonist	PINK1 expr mod	Six1-Eya2 inh	TRPML1 blocker	TRPML1 agonist
COC(=O)c1ccc(/C=N/n2cnnc2)cc1	-20	0.9	x	-1	-1	-0.3
CC(C(=O)c1ccc(-c2ccccc2)cc1)[n+]1ccccc1 (stereo unspecified)	-25	1.1	2.7%	6	-8	0.9
O=C(NCc1cc(Cl)cc(Cl)c1)c1ccc2sc([C@H]3C[C@H](O)[C@@H](CO)O3)nc2c1	-5	5.3	7.5%	u	x	0.2
Cn1cc([N+](=O)[O-])c(C(=O)Nc2cnn(Cc3ccc(F)cc3)c2)n1	-14	0.3	6.4%	1	0	0.5
Cc1ccc2cc(CN(Cc3ccco3)C(=S)NCC3CCCO3)c(=O)[nH]c2c1 (stereo unspecified)	-8	0.4	2.7%	-8	6	-0.6
CC1(C(=O)NCC2CC2)Cc2c(-c3ccc4c(c3)OCO4)ccnc2O1 (stereo unspecified)	-7	-4.9	8.4%	-9	x	-1.2
N#C/C(=N\O)c1nc2ccccc2s1	-13	-4.3	4.3%	-3	1	-0.3
C=CCn1c(=O)c2ccccc2n2c(SCC(=O)NC(C)C)nnc12	-13	-6.6	0.8%	2	16	-0.6
CCc1c(C)nc(SCc2ccccn2)[nH]c1=O	-3	-0.3	-0.9%	1	22	0.1
CCCNC(=O)c1nnsc1S(=O)c1ccc(Cl)cc1 (stereo unspecified)	-24	-10	-1.4%	3	1	7.7
Cc1ccc(C)c(N2CCN(C(=O)CCc3nc(-c4ccc(Cl)cc4)no3)CC2)c1	x	0.8	-0.8%	0	23	-0.4
O=C(N/N=C/c1sc2ccccc2c1O)c1cccc2ccccc12	-21	-8.2	0.5%	u	6	1.0
CCCCNC(=S)N1CCn2cccc2C1c1ccccc1 (stereo unspecified)	-3	-1.1	0.9%	-4	17	0.0
O=C([C@H]1O[C@@H](n2ccc(=O)[nH]c2=O)[C@H](O)[C@@H]1O)N1CCSC1	-3	2.2	3.4%	2	x	-0.5
CCc1ccc(NC(=O)Cn2c(=O)n(Cc3nc(-c4ccccc4)no3)c(=O)c3cc4c(cc32)OCO4)cc1	x	x	1.1%	x	-4	1.4
CN(Cc1ccc(F)cc1)C(=O)c1ccc(NC(=O)CC2SC(N3CCCC3)=NC2=O)cc1 (stereo unspecified)	-4	-0.7	0.4%	0	10	1.0
Cc1ccc(CN2C(=O)c3ccccc3C2C(=O)NC2CCCCCC2)cc1 (stereo unspecified)	x	x	0.7%	x	40	5.9
CC1CCCCN1C(=O)CCS(=O)(=O)Cc1ccccc1 (stereo unspecified)	-4	-3.2	-1.1%	4	-2	0.9
Cn1c(=O)c2c(ncn2CC(=O)OCC(=O)Nc2ccccc2)n(C)c1=O	2	2.0	0.9%	0	0	0.0
CC(NC(=S)Nc1c(Br)cccc1OC(F)F)C(C)(C)C (stereo unspecified)	-16	-1.6	2.8%	5	13	0.0
Cc1cc(C(=O)NCCN2CCN(c3cccc(Cl)c3)CC2)n(-c2ccccc2)n1	-8	-4.3	4.1%	-17	6	-0.6
CC#CCN1c2ccccc2[C@]23C[C@@H](C(=O)OC)N(C(=O)c4ccc(Br)cc4)C2=NC(C(=O)OC)=C(C(=O)OC)[C@H]13	-5	-0.2	u	-8	-6	0.3
CCOC(=O)N1CCN(Cc2nc3cc(NC(=O)c4ccccc4[N+](=O)[O-])ccc3n2C(C)C)CC1	x	x	1.1%	x	-14	-0.3
C=CCn1c(=O)c2c(nc3n2CCCN3Cc2ccccc2)n(C)c1=O	-10	-4.2	0.3%	-16	-17	0.2
COc1ccc(-c2csc(NC(=O)c3nc(-c4ccccc4)oc3C)n2)cc1	-3	-1.2	22%	0	-1	-0.4
COc1ccc(CNC(=O)c2cc3c(=O)oc4ccc(C)cc4c3s2)c(OC)c1	x	x	2.7%	x	1	-0.5
O=S(=O)(c1cnc(Cl)c(Br)c1)N1CCCCCC1	23	3.0	0.9%	11	9	1.2
CSc1nc2[nH]ncc2c(=O)n1-c1ccccc1	12	-0.8	3.3%	4	-9	0.9
N#CCCn1c(-c2nonc2NC(=O)c2ccccc2Cl)nc2ccccc21	-3	2.6	22%[38.3 µM]	2	2	1.8
O=C(N/N=C/c1cccc2cccnc12)c1ccccc1O	-23	-0.5	-0.1%	-92*	4	0.2
O=C1/C(=C/c2cccnc2)SC(=S)N1Nc1ccccc1	-3	-3.2	-0.3%	4	6	0.8
CCN1CCN(C(=S)Nc2cccc(C(F)(F)F)c2)CC1	-8	-3.6	2.8%	-1	8	-0.1
Cn1c(CNC(=O)c2cccs2)nnc1SCC(=O)Nc1ccc(Cl)cc1	-2	-2.7	-4.8%	-1	5	-0.3
CCc1ccccc1NC(=O)C1=CC(c2cccs2)=NS(=O)(=O)N1C	-13	-7.5	-0.1%	-1	3	0.6
C=CCN1/C(=C(\C#N)C2=NS(=O)(=O)c3ccccc32)N(C)c2ccccc21	-5	-0.4	7.0%[38.3 µM]	1	0	0.8
O=C(CC1CCCCC1)NCC1CCCO1 (stereo unspecified)	12	0.1	-0.8%	5	-5	1.0
CCOC(=O)C1=C(C)NC(=O)NC1c1ccc([N+](=O)[O-])o1 (stereo unspecified)	-3	-1.7	0.5%	3	1	-0.6
O=C(Cn1c(=O)oc2ccccc21)Nc1ccc(C(=O)O)cc1	x	x	0.8%	x	12	0.8
O=C(O)c1cccc([N+](=O)[O-])c1C(=O)Nc1nc2ccccc2s1	-55	6.3	-0.4%	-15	16	0.4
COc1cccc(CNC(=O)c2ccc(CNS(=O)(=O)c3ccc(C)cc3)cc2)c1	x	x	-5.7%	x	26	1.9
CC1(C)CC(=O)C=C(NCCN2CCN(C(=O)Nc3ccc(Cl)c(Cl)c3)CC2)C1	3	-2.5	6.5%	-7	2	-0.7

Only PINK1 expr mod and D2 PAM, for 3 of the compounds above:
compound | PINK1 expr mod | D2 PAM
O=C(O)c1cccc([N+](=O)[O-])c1C(=O)Nc1nc2ccccc2s1 | -0.4% | -55
O=C(Cn1c(=O)oc2ccccc21)Nc1ccc(C(=O)O)cc1 | 0.8% | x
CC1(C)CC(=O)C=C(NCCN2CCN(C(=O)Nc3ccc(Cl)c(Cl)c3)CC2)C1 | 6.5% | 3
